# LANA-H2B inh: blockers of LANA interaction with H2A/H2B – biochemical, FP readout, HTS, primary screen; cell-free LANA-H2A/H2B peptide, fluorescence polarization; inhibition, % (no concentration beside the values); actives 0.6% (n = 320,000); AID 2629, 2010; in the data active = inhibition mostly above about 10%, no sharp cut-off; inactive = mostly below about 6.7%;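 also: stock transfer was 7.5 nL into about 10 µL; 0% = median of vehicle wells and 100% = median of positive control wells; one replicate is shown; the record names a cut of 25% in any replicate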
# Target sequence (Q9QR71 whole entry, looked up): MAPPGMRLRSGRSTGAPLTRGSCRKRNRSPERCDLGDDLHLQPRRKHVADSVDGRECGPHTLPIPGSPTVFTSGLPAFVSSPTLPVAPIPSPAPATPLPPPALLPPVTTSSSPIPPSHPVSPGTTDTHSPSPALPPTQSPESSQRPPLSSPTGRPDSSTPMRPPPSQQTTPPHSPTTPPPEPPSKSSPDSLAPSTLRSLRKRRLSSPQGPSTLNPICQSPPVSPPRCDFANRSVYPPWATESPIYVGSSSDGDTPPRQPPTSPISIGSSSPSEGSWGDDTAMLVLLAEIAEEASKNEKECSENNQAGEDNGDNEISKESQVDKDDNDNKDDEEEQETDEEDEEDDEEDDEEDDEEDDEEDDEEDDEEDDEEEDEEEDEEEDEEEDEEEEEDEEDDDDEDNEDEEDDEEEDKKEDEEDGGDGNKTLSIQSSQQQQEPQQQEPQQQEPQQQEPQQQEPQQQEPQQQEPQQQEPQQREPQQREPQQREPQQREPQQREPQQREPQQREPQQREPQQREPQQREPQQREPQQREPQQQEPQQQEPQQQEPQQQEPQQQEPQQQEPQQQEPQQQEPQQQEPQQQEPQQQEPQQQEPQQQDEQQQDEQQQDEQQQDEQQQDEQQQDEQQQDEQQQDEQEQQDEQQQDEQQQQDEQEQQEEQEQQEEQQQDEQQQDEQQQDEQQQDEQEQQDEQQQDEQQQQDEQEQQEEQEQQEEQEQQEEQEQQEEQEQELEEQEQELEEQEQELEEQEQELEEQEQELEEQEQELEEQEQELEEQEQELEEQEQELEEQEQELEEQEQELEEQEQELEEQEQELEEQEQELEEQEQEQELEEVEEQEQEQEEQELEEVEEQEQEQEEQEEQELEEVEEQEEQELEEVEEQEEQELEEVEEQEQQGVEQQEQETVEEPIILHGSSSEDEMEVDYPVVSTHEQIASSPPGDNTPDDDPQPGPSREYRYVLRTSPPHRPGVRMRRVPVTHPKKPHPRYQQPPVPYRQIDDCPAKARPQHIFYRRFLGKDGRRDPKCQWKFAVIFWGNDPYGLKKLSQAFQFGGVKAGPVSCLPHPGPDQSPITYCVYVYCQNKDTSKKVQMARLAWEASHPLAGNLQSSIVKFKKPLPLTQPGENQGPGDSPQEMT
# Beta cell apopt: inhibitors of cytokine-induced beta cell apoptosis, primary screen, luminescence | INS-1E cytokine-induced death, ATP luminescence, 48 h; percent of positive-control rescue, neutral wells zero | protection from apoptosis, % (test concentration not listed) | actives 0.8% (n = 300,000) | AID 435005, 2010;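 active = all replicates at 75% or more, or half of them and the mean; inconclusive = half reach 75% but not the mean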;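 also: 0% = cytokine-treated negative control wells and 100% = positive control rescue; higher means more ATP so stronger rescue from cytokine killing; wells of about 40 µL received 100 nL stock; the first replicate is given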
# A1 inh: caspase 3/7 activation in MEF A1-2A-BIM cells, primary screen, A1 inhibitor project, cell-based, luminescence, HTS. actives 0.066% (n = 330,000). Caspase-Glo 3/7 luminescence, 3 h; percent of clofoctol response, vehicle zero. AID 2462, 2010. caspase activation, % (test concentration not listed);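 active = over half of replicate activation scores above 10%, or exactly half above 10 with the replicate mean above 10; inconclusive = replicate mean below 10 yet half the replicates above 10; inactive = over half of replicates below 10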;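 also: wells of about 30 µL received 50 nL stock; many hits fall short of the cut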
# Calb FLC: C. albicans growth inhibition with fluconazole, primary screen, CaCi-2 strain, Alamar Blue fluorescence; C. albicans CaCi-2 (fluconazole-resistant clinical isolate) + fluconazole, 48 h; growth inhibition, % (test concentration not listed); actives 0.57% (n = 300,000);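 active = most replicates above 75%; inconclusive = exactly half above 75%; inactive = most below 75%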;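 also: all wells also contain fluconazole at 8 µg/ml as a sub-toxic cotreatment; 0% = median of DMSO wells and 100% = median of geldanamycin control wells; wells of about 8 µL received 7.5 nL stock; the first replicate is given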
# B2AR ag: beta2AR agonists driving receptor internalization, primary screen, cell-based, FAP fluorogen, flow cytometry; AID 504454, 2011; response, % (concentration not given with the values); Beta-2 adrenergic receptor (Homo sapiens), P07550; Am2.2-beta2AR cells; reference of the scale not given here; actives 0.43% (n = 340,000);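 active = response above a set limit, near 3 SD of response in nonfluorescent compounds, cut at about 42% in these data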;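 also: stock transfer was 100 nL into about 11 µL; a reference agonist was the positive control; negative values mostly stem from fluorescent compounds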
# UCH37 DUB inh: inhibitors of human UCH37 deubiquitinase, primary screen, biochemical, Ub-AMC cleavage, fluorescence; purified proteasome/UCH37; actives 0.33% (n = 330,000); inhibition, % (test concentration not listed);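 active = mean of two replicates above 20%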;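 also: 0% = compound-free wells with enzyme and 100% = wells lacking proteasome; stock transfer was 100 nL into about 20 µL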
#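 system = Proteasome-associated human UCH37 deubiquitinase | amount = 0.15 nM proteasome as dispensed | medium = pH 7.4 Tris-HCl (50 mM) with ovalbumin, ATP-MgCl2, DTT | incubation = 30 min preincubation with enzyme, 25 min cleavage at room temperature | detection = AMC fluorescence 355/460 nm | read-out basis = percent inhibition | controls = no-proteasome and no-compound wells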
# RanGTP-Imp inh: inhibitors of RanGTP-importin-beta interaction, primary screen, biochemical, FRET, CFP-Ran, YFP-importin-beta, homogeneous; cell-free CFP-Ran/YFP-importin-beta FRET ratio; inhibition, % (test concentration not listed); actives 1.1% (n = 300,000); AID 2216, 2009;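 active = most replicates above 15%; inconclusive = exactly half above 15%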;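 also: 0% = DMSO wells and 100% = Ran loaded with GDP instead of GTP; wells of about 40 µL received 100 nL stock; the first replicate is given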
# T cruzi inh: inhibitors of intracellular T. cruzi growth, primary screen, luminescence, NIH3T3 host cells; AID 1885, 2009; T. cruzi beta-gal in NIH3T3, 90 h; inhibition, % (concentration not given with the values); actives 1.4% (n = 300,000);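 active = mean inhibition across valid replicates above about 55%, limit read from the data; inconclusive = mean below that limit but half or more replicates reach it; inactive = mean below it, under half of replicates reach it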;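 also: signal also drops with host cell toxicity which is not excluded here; 0% = plate median of DMSO wells and 100% = zero luminescence signal; higher percent means less beta-gal luminescence so fewer parasites; stock transfer was 50 nL into about 50 µL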
# Active calls of the source: *; ? = inconclusive; . = no result given. A portion of the library, so the mix of outcomes need not match the whole.
# Each structure is followed by: LANA-H2B inh	Beta cell apopt	A1 inh	Calb FLC	B2AR ag	UCH37 DUB inh	RanGTP-Imp inh	T cruzi inh
CCNc1nc2[nH]c(=O)c3c(c2s1)OC(N)=C(C#N)C3c1cccs1 (configuration not stated)
→ 1.4	0	0.0	-4	4	.	-0.1	-11
N#CC12CNCC1CN=N2 (configuration not stated)
→ 18*	.	0.5	-2	1	.	-3.4	1
COC(=O)C1=C(c2ccc(F)cc2OCc2ccccc2)C[C@@H]2CC[C@H]1N2C(=O)NCc1ccc(C(C)(C)C)cc1
→ -1.0	9	-0.7	.	-4	2.8	.	.
Cc1ccc(OCC(=O)N2CCN(C)CC2)c(Br)c1
→ -1.5	3	0.7	1	-1	3.1	-1.3	-2
C=Cn1ccnc1P(=S)(c1nccn1C=C)C1CCCCC1
→ 3.4	-10	0.1	-3	4	2.3	-2.3	-12
Oc1ccccc1-[n+]1c(-c2ccccc2)cc(-c2ccccc2)cc1-c1ccccc1
→ -0.6	42	0.2	2	-10	5.3	7.7	23
CC(NCc1ccc(Cl)c(Cl)c1)C(O)c1ccccc1 (configuration not stated)
→ 0.2	4	0.6	3	4	-0.9	-2.0	-3
COc1ccc(N=Nc2c(O)[nH]c(=S)[nH]c2=O)cc1
→ -9.7	24	-8.3	26	4	21*	2.0	-16
CC(=O)c1c(C)n(CC2CCCO2)c2ccc(O)cc12 (configuration not stated)
→ 7.7	-1	0.4	-4	0	1.2	0.1	0
Cc1ccc(S(=O)(=O)NCC2CCC(C(=O)N3CCC4(CC3)OCCO4)CC2)cc1 (configuration not stated)
→ 2.1	7	-0.3	0	-3	0.8	5.7	11
C[N+]12CCC(CC1)C(=C(c1ccccc1)c1ccccc1)C2
→ -1.4	-3	-0.4	-7	5	-0.2	-0.2	6
Cc1[nH]c2ccccc2c1C1=CCNCC1
→ -6.3	-10	0.5	2	-24	1.3	3.2	-6
CN(C(=O)Cc1ccc(Cl)c(Cl)c1)C(CN1CCCC1)c1cccc(OCC(=O)O)c1 (configuration not stated)
→ -5.7	-1	0.4	.	-5	-5.4	.	.
Cc1ccc2c(c1)C1CN(C)CCC1N2C(=O)CCCN1C(=O)c2cccc3cccc(c23)C1=O (configuration not stated)
→ 4.0	3	0.3	-18	-12	4.4	-1.5	?
CCC(=NCc1ccco1)c1c(O)n(C)c(=O)n(C)c1=O
→ -3.8	-2	-1.4	1	2	2.1	0.3	5
COc1ccc(/C=C2/C(=O)NC(=O)N(C3CCCCC3)C2=O)cc1CSc1ccccn1
→ -2.8	0	0.4	15	.	.	8.3	-1
COc1ccc(-n2c(/C=C/c3ccc(O)cc3)nc3ccccc3c2=O)cc1
→ 1.0	.	-0.5	10	5	-9.4	-2.3	24
Cc1noc(C)c1C(=O)N1CCC2(CC1)OCCO2
→ -3.7	2	-0.1	10	0	1.3	1.8	-30
Cc1[nH]c2ccccc2c1/C=N/O
→ -0.8	5	0.8	1	6	.	0.8	-4
O=C(N/N=C/c1c(O)n(C2CC2)c(=S)[nH]c1=O)c1ccccc1Cl
→ 2.8	0	-0.3	-4	-2	6.9	6.3	-7

# Brought forward from above: 5 compounds; new compounds follow.
# Each structure is followed by: LANA-H2B inh	Beta cell apopt	A1 inh	Calb FLC	B2AR ag	UCH37 DUB inh	RanGTP-Imp inh	T cruzi inh
COc1ccc(/C=C2/C(=O)NC(=O)N(C3CCCCC3)C2=O)cc1CSc1ccccn1
→ -2.8	0	0.4	15	.	.	8.3	-1
COc1ccc(-n2c(/C=C/c3ccc(O)cc3)nc3ccccc3c2=O)cc1
→ 1.0	.	-0.5	10	5	-9.4	-2.3	24
Cc1noc(C)c1C(=O)N1CCC2(CC1)OCCO2
→ -3.7	2	-0.1	10	0	1.3	1.8	-30
Cc1[nH]c2ccccc2c1/C=N/O
→ -0.8	5	0.8	1	6	.	0.8	-4
O=C(N/N=C/c1c(O)n(C2CC2)c(=S)[nH]c1=O)c1ccccc1Cl
→ 2.8	0	-0.3	-4	-2	6.9	6.3	-7
COC(=O)C1=C(c2ccccc2)C[C@@H]2CC[C@H]1N2C(=O)NCc1ccc(F)cc1
→ 7.2	-9	1.2	20	-3	2.3	-4.4	-1
COc1cc2c(cc1OC)C(C)NCC2 (configuration not stated)
→ 3.6	-1	1.6	.	-14	-2.2	.	.
Cc1ccc(N2C(=O)NC(=O)/C(=C\c3ccoc3)C2=O)cc1
→ -2.1	.	-0.4	-26	4	.	0.2	-4
NC1=C([N+](=O)[O-])C(c2ccc3c(c2)OCO3)c2c(c3ccccc3oc2=O)O1 (configuration not stated)
→ 0.7	-5	0.2	7	.	6.3	-1.6	-6
O=C1NC(=O)C(C(CC(=O)c2ccccc2)c2ccccc2)C(=O)N1 (configuration not stated)
→ -0.5	-1	1.1	-22	4	0.7	7.6	-6
C[C@]1(O)CCC2C3CC[C@@H]4CC(=O)CC[C@]4(C)C3CC[C@@]21C (some centres not stated)
→ -5.5	2	2.5	.	0	.	.	.
CC(=O)NC1C(OC(=O)Cc2ccccc2)OC(COC(C)=O)C(OC(C)=O)C1OC(C)=O (configuration not stated)
→ -7.2	-2	-0.5	10	7	-0.2	6.4	1
Cc1cc(/C=C2\C(=O)NC(=O)N(Cc3ccccc3Cl)C2=O)c(C)n1-c1ccc(C(=O)O)cc1
→ -3.2	3	-0.4	20	2	7.7	7.7	-5
C/C(=N\N1CCCCCC1)c1c(O)n(C)c(=O)n(C)c1=O
→ -4.0	-16	-0.5	1	.	6.9	4.4	-2
O=[N+]([O-])c1ccc(NCc2ccccc2)c2nonc12
→ 17	5	0.6	?	.	-0.4	-217	-4
CNS(=O)(=O)c1ccc(N=Cc2c(O)n(-c3ccc(C)cc3)c(=O)[nH]c2=O)cc1
→ -0.6	-1	0.0	-6	-4	6.0	0.6	-3
CNC(=O)Oc1ccc2ncccc2c1
→ -2.0	7	0.3	-2	0	-1.8	-1.9	-4
C/C(=N\NC(=O)c1ccccc1)c1c(O)n(Cc2ccccc2)c(=O)[nH]c1=O
→ 6.2	-2	-0.7	-3	0	8.5	1.7	-4
CCC(=Nc1cccc(C(F)(F)F)c1)c1c(O)n(C)c(=O)n(C)c1=O
→ -0.6	-7	-0.5	-6	-12	4.8	2.4	-4
CN1C2CCC1CC(OC(=O)CCN1CCCC1)C2 (configuration not stated)
→ 0.9	2	0.1	?	1	0.8	-3.2	-9
CCOC(=O)C1CCCN(c2ccc([N+](=O)[O-])c3nonc23)C1 (configuration not stated)
→ .	.	.	-11	-17	19	-2.5	0
Cc1cccc(NC(=O)N2CCCC2)c1
→ -1.6	-7	-0.3	1	-6	1.3	-0.8	-13
CNC(C)Cc1ccccc1Sc1ccc(O)cc1 (configuration not stated)
→ 6.0	-7	-0.6	6	5	1.2	-2.6	-1
CN1CCN(c2nc(Cl)ncc2F)CC1
→ -1.4	0	0.8	-7	1	0.1	-0.5	17
C=C(C)[C@H]1CN[C@H](C(=O)O)[C@H]1CC(=O)O
→ -0.3	6	-0.1	.	2	0.1	-0.7	-17
Cc1oc(-c2ccccc2)nc1CN1C(=O)CN=C(c2ccccc2)c2ccccc21
→ -2.3	0	0.4	7	-5	.	?	8
CCC(C)N1C(=O)NC(=O)C2(Cc3c(ccc4ccccc34)N(C)C2)C1=O (configuration not stated)
→ 0.7	-2	0.9	21	16	1.5	-0.6	-9
COCCNC(=O)Cn1cc(C(=O)c2ccccc2F)c2ccccc21
→ 3.6	-2	0.5	-2	-6	6.5	4.5	5
COc1ccc(/C=C2/C(=O)NC(=S)N(C3CC3)C2=O)cc1CN1C(=O)c2ccccc2C1=O
→ -92	-1	0.2	.	-9	4.4	.	.
C(CCc1nn[nH]n1)CCc1nn[nH]n1
→ 1.0	.	0.4	8	7	-0.1	-2.6	-10
C=C1C(=O)O[C@@H]2C[C@@H](C)[C@H]3C=CC(=O)[C@]3(O)C[C@@H]12
→ -2.7	2	-0.5	26	10	1.1	4.8	-32
O=C1NC(=S)NC(=O)C12C(c1ccc(F)cc1)NC(=S)NC2c1ccc(F)cc1 (configuration not stated)
→ -0.3	0	-0.8	-5	3	2.7	-0.5	-5
O=C1CCN(C(=O)Cc2ccccc2[N+](=O)[O-])CC1
→ -8.3	-3	0.1	0	0	0.4	-7.0	0
CCOP1(=S)Oc2cc3c(cc2C(C(=O)OC)(C(F)(F)F)O1)OCO3 (configuration not stated)
→ 1.1	-11	0.4	36	3	-1.5	3.1	-4
COc1cc(CN2CCN(c3cc(C)ccc3C)CC2)ccc1O
→ 2.4	108*	3.5	-20	7	1.7	2.9	-7
Cn1c(O)c(C=NC2CCCCC2)c(=O)[nH]c1=S
→ -6.0	-1	-0.1	-3	-19	22*	-0.3	2
Cc1nn(CC(C)C)c(Cl)c1C(=O)NC1CCC(C)CC1 (configuration not stated)
→ -1.4	-6	-0.2	1	-2	5.7	2.8	4
CCOP(=O)(OCC)C(NC(=O)C(C)C)C(Cl)(Cl)Cl (configuration not stated)
→ 5.2	-6	0.0	-9	-7	2.3	5.2	-3
c1csc(CN2CCNCC2)c1
→ 6.8	-11	-0.5	1	-1	2.1	-2.9	3
O=C(C(=O)N1CCOCC1)c1cn(Cc2ccccc2)c2ccccc12
→ 1.5	-4	0.6	-8	-6	2.1	-3.0	1
COC(=O)C1=C(c2cccc(C#N)c2)C[C@@H]2CC[C@H]1N2C(=O)NC(C)C
→ 0.8	-8	0.0	.	3	4.8	.	.
NC(=O)CSc1nnc([C@@H](N)Cc2c[nH]c3ccccc23)o1
→ -1.6	2	0.3	17	-1	2.7	4.5	5
CCOc1ccc(Cc2c(O)[nH]c(=O)[nH]c2=O)cc1
→ -3.1	3	0.2	-2	2	2.7	-0.4	-9
CC(C)(O)[C@H]1O[C@H]2CC[C@@]3(C)[C@@](O)(CC[C@H]4Cc5c([nH]c6ccccc56)[C@@]43C)C2=CC1=O
→ 2.6	4	0.3	.	.	-0.1	-3.5	19
Cc1cc(=O)oc2c(C)c(OCC(=O)N3CCN(Cc4ccc5c(c4)OCO5)CC3)ccc12
→ 0.5	0	-0.3	27	4	-23	1.5	20
CN1C(=O)C(=Cc2ccc(N3CCCCC3)o2)C(=O)N(C)C1=S
→ -2.7	-4	0.9	14	-17	.	-0.2	-7
O=C(c1ccc2c(c1)OCO2)N1CCC2(CC1)OCCO2
→ -1.8	-2	0.8	1	-4	4.2	-2.8	2

# Source: PubChem
